# Yeast UUG start – modulators of start codon recognition fidelity in yeast; 350,000 compounds, 0.13% hits; activity score, % at 18.7 µM; S. cerevisiae UUG-firefly luciferase reporter, luminescence/redox ratio;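 active means replicate mean at a twofold rise or more, about +100% in these data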;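 further: firefly luciferase made from a UUG start codon reports start codon fidelity; reporter light over untreated wells divided by growth signal over untreated wells; some hits fall short of that in this replicate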
# The depositor's hits bear a star.
Yeast UUG start,mol
2,CC(C)C#Cc1ccc([C@@H]2[C@@H](CO)N3CCCCN(C(=O)NC(C)C)C[C@H]23)cc1
-1,CCCNC(=O)N1C[C@@H]2[C@H](c3ccccc31)[C@H](CO)N2CC1CCCCC1
10,CO[C@@H]1CN(C)C(=O)c2ccc(NC(=O)C3CCCCC3)cc2OC[C@@H](C)N(C)C[C@@H]1C
-1,C/C=C/c1ccc([C@H]2[C@@H](CO)N(C(C)=O)[C@H]2CNC(=O)c2ccccc2)cc1
0,CO[C@H]1CN(C)C(=O)c2cc(NC(=O)C3CC3)ccc2OC[C@H](C)NC[C@H]1C
2,C[C@H]1CN([C@@H](C)CO)C(=O)Cc2cc(NC(=O)CCC(F)(F)F)ccc2O[C@H]1CN(C)S(=O)(=O)c1ccccc1
0,O=C(C[C@H]1C[C@@H]2c3cc(NC(=O)Nc4ccccc4)ccc3O[C@@H]2[C@H](CO)O1)NCC(F)(F)F
-4,C[C@@H]1CN([C@H](C)CO)C(=O)c2cc(NC(=O)Cc3ccccc3)ccc2O[C@H]1CN(C)S(=O)(=O)c1ccc(F)cc1
-2,C[C@H]1CN([C@@H](C)CO)C(=O)c2cccc(NS(=O)(=O)c3ccc(F)cc3)c2O[C@H]1CN(C)C(=O)Nc1cccc2ccccc12
12,C[C@@H]1CN([C@@H](C)CO)C(=O)c2cccc(NS(C)(=O)=O)c2O[C@@H]1CN(C)S(=O)(=O)c1cn(C)cn1
6,C/C=C/c1ccc([C@@H]2[C@@H](CO)N(C(=O)C3CC3)[C@H]2CN(C)C(=O)CC)cc1
-3,CN(C)CC#Cc1ccc([C@H]2[C@H]3CN(C(=O)C4CC4)CCCCN3[C@H]2CO)cc1
-2,COC(=O)C[C@H]1CC[C@@H]2[C@@H](COc3ccc(NC(=O)c4cscn4)cc3C(=O)N2C)O1
8,CO[C@@H]1CN(C)C(=O)c2cc(NS(=O)(=O)c3cn(C)cn3)ccc2OC[C@@H](C)N(Cc2cccc(C(F)(F)F)c2)C[C@H]1C
-12,COc1ccc(CN2C[C@@H](C)[C@H](OC)CN(C)C(=O)c3cc(NC(C)=O)ccc3OC[C@@H]2C)cc1
0,COCC(=O)N1CC[C@@H]2[C@H](CO)Nc3ccc(-c4cccc(C#N)c4)cc3[C@@H]21
20,C[C@H](CO)N1C[C@H](C)[C@@H](CN(C)S(=O)(=O)c2ccc(F)cc2)OCc2ccccc2-c2c(n(C)c3ccccc23)C1=O
-6,CCCNC(=O)Nc1ccc2c(c1)OC[C@H](C)N(C(=O)C1CC1)C[C@H](C)[C@H](OC)CN(C)C2=O
4,C[C@@H]1CN([C@H](C)CO)C(=O)Cc2cc(NC(=O)Nc3ccc(C(F)(F)F)cc3)ccc2O[C@@H]1CN(C)C
-15,CN1C[C@H]2[C@@H](c3ccccc31)[C@@H](CO)N2C(=O)C1CC1
-5,C[C@H](CO)N1C[C@H](C)[C@H](CN(C)Cc2ccc(-c3ccccc3)cc2)Oc2ccc(NC(=O)C3CC3)cc2C1=O
7,CC(=O)N1[C@H](CO)[C@@H](c2ccc(C3=CCCCC3)cc2)[C@@H]1CNC(=O)CN(C)C
9,C[C@H]1CN([C@@H](C)CO)C(=O)c2cccc(NC(=O)c3ccc(-c4nccs4)cc3)c2O[C@@H]1CN(C)C
11,CC(C)NC(=O)Nc1ccc2c(c1)CC(=O)N([C@@H](C)CO)C[C@@H](C)[C@H](CN(C)Cc1ccncc1)O2
-23,CN(C)CC(=O)Nc1ccc2c(c1)[C@H]1C[C@H](CC(=O)NCc3cccnc3)O[C@@H](CO)[C@H]1O2
-2,C[C@@H]1CN([C@H](C)CO)C(=O)c2cc(NC(=O)c3ccncc3)ccc2O[C@H]1CN(C)C(=O)Nc1ccc2c(c1)OCO2
-2,CN(C)C(=O)c1ccc(-c2ccc([C@H]3[C@H](CO)N4CCCCN(C(=O)C5CC5)C[C@@H]34)cc2)cc1
7,C[C@@H]1CN([C@@H](C)CO)C(=O)c2cccc(NS(=O)(=O)c3ccc(Cl)cc3)c2O[C@@H]1CN(C)C(=O)Nc1ccccc1
0,C[C@@H]1CN([C@H](C)CO)C(=O)c2cccc(NS(=O)(=O)c3cn(C)cn3)c2O[C@@H]1CN(C)C(=O)Nc1cccc2ccccc12
-1,C[C@@H]1CN([C@H](C)CO)C(=O)c2cc(NS(C)(=O)=O)ccc2O[C@H]1CN(C)S(=O)(=O)c1cccs1

# Part of the list above in order of SMILES length, lowest first:
Yeast UUG start,mol
-15,CN1C[C@H]2[C@@H](c3ccccc31)[C@@H](CO)N2C(=O)C1CC1
0,COCC(=O)N1CC[C@@H]2[C@H](CO)Nc3ccc(-c4cccc(C#N)c4)cc3[C@@H]21
7,CC(=O)N1[C@H](CO)[C@@H](c2ccc(C3=CCCCC3)cc2)[C@@H]1CNC(=O)CN(C)C
-6,CCCNC(=O)Nc1ccc2c(c1)OC[C@H](C)N(C(=O)C1CC1)C[C@H](C)[C@H](OC)CN(C)C2=O
-23,CN(C)CC(=O)Nc1ccc2c(c1)[C@H]1C[C@H](CC(=O)NCc3cccnc3)O[C@@H](CO)[C@H]1O2
-2,CN(C)C(=O)c1ccc(-c2ccc([C@H]3[C@H](CO)N4CCCCN(C(=O)C5CC5)C[C@@H]34)cc2)cc1
-1,C[C@@H]1CN([C@H](C)CO)C(=O)c2cc(NS(C)(=O)=O)ccc2O[C@H]1CN(C)S(=O)(=O)c1cccs1
-5,C[C@H](CO)N1C[C@H](C)[C@H](CN(C)Cc2ccc(-c3ccccc3)cc2)Oc2ccc(NC(=O)C3CC3)cc2C1=O
-2,C[C@@H]1CN([C@H](C)CO)C(=O)c2cc(NC(=O)c3ccncc3)ccc2O[C@H]1CN(C)C(=O)Nc1ccc2c(c1)OCO2
7,C[C@@H]1CN([C@@H](C)CO)C(=O)c2cccc(NS(=O)(=O)c3ccc(Cl)cc3)c2O[C@@H]1CN(C)C(=O)Nc1ccccc1
0,C[C@@H]1CN([C@H](C)CO)C(=O)c2cccc(NS(=O)(=O)c3cn(C)cn3)c2O[C@@H]1CN(C)C(=O)Nc1cccc2ccccc12

# (cont.)
Yeast UUG start,mol
15,CCS(=O)(=O)N1CCCCN2[C@H](C1)[C@H](c1ccc(C#Cc3ccccn3)cc1)[C@@H]2CO
4,CO[C@H]1CN(C)C(=O)c2cc(NC(C)=O)ccc2OC[C@@H](C)N(Cc2ccc(F)cc2)C[C@@H]1C
4,O=C(NCC1CC1)[C@H]1[C@H](CO)[C@H]2Cn3c(ccc(C4=CCCCC4)c3=O)[C@@H]1N2
-1,C[C@H](CO)N1C[C@H](C)[C@H](CN(C)S(=O)(=O)c2ccc3c(c2)OCCCO3)OCc2cn(nn2)CCCC1=O
3,C/C=C/c1ccc([C@@H]2[C@@H](CNC(=O)CC)N(C(=O)COC)[C@H]2CO)cc1
23,C[C@@H]1CN([C@@H](C)CO)C(=O)c2cc(NC(=O)Nc3ccc4c(c3)OCO4)ccc2O[C@H]1CN(C)Cc1ccc(Cl)c(Cl)c1
-5,C[C@H]1CN([C@@H](C)CO)C(=O)c2cccc(NC(=O)c3ccc(-c4nccs4)cc3)c2O[C@@H]1CN(C)Cc1ccc(Oc2ccccc2)cc1
-14,CN(C)C(=O)C[C@@H]1C[C@H]2c3cc(NS(=O)(=O)c4ccccc4)ccc3O[C@H]2[C@@H](CO)O1
9,COc1ccc(CN(C)C[C@@H]2Oc3c(NS(=O)(=O)c4ccc(C)cc4)cccc3C(=O)N([C@H](C)CO)C[C@H]2C)cc1
1,C[C@@H]1CN([C@H](C)CO)C(=O)Cc2cc(NC(=O)c3ccncc3)ccc2O[C@H]1CN(C)Cc1ccc(Oc2ccccc2)cc1
8,O=C(Nc1ccc(F)cc1)N1CCCCN2[C@@H](CO)[C@H](c3ccc(-c4ccccc4F)cc3)[C@@H]2C1
-3,Cc1ccc(S(=O)(=O)Nc2ccc3c(c2)C(=O)N([C@H](C)CO)C[C@H](C)[C@@H](CN(C)S(=O)(=O)c2cccs2)O3)cc1
15,CO[C@@H]1CN(C)C(=O)c2ccc(NS(=O)(=O)c3ccc(F)cc3)cc2OC[C@@H](C)N(C(=O)NC(C)C)C[C@H]1C
5,O=S(=O)(c1ccccc1F)N1CCCCN2[C@H](CO)[C@@H](c3ccc(-c4cccnc4)cc3)[C@H]2C1
14,C[C@@H](O)C#Cc1ccc([C@@H]2[C@@H](CO)N3CCCCN(C(=O)Nc4ccccc4)C[C@@H]23)cc1
4,COc1cccc(S(=O)(=O)N2CCCCN3[C@H](C2)[C@@H](c2ccc(-c4ccccc4)cc2)[C@@H]3CO)c1
4,Cc1noc(C)c1NC(=O)Nc1cccc2c1O[C@@H](CN(C)C)[C@H](C)CN([C@H](C)CO)C2=O
-4,C[C@H](CO)N1C[C@H](C)[C@@H](CN(C)C(=O)Nc2ccc(F)cc2)Oc2ccc(N(C)C)cc2CC1=O
-1,COCC(=O)Nc1ccc2c(c1)C(=O)N(C)[C@H]1CC[C@@H](CC(=O)NCCc3ccncc3)O[C@@H]1CO2
-10,CCNC(=O)C[C@H]1CC[C@@H]2[C@H](COC[C@@H](O)CN2C(=O)c2cccnc2)O1
-3,C[C@@H](O)C#Cc1ccc([C@@H]2[C@H]3CN(C(=O)c4ccc5c(c4)OCO5)CCCCN3[C@H]2CO)cc1
-19,CN1c2ccc(-c3ccccc3)cc2[C@@H]2[C@@H](CCN2C(=O)NC2CCCC2)[C@H]1CO
13,Cc1noc(C)c1NC(=O)Nc1ccc2c(c1)C(=O)N([C@@H](C)CO)C[C@@H](C)[C@@H](CN(C)C)O2
-26,OC[C@@H]1[C@H](c2ccc(-c3cccnc3)cc2)[C@@H]2CN(Cc3ccccn3)CCCCN12
-11,O=C(C1CCOCC1)N1C[C@@H]2[C@H](c3ccccc31)[C@@H](CO)N2Cc1ccccc1
7,COC(=O)C[C@@H]1CC[C@@H]2[C@H](COc3ccc(NC(=O)c4ccc(C(F)(F)F)cc4)cc3C(=O)N2C)O1
0,CN1[C@@H]2CN(C(=O)C3CCCCC3)c3ccccc3[C@@H]2[C@@H]1CO
-6,C[C@@H]1CN([C@H](C)CO)C(=O)Cc2cc(NS(=O)(=O)c3ccccc3)ccc2O[C@H]1CN(C)C
-4,C[C@@H]1CN([C@H](C)CO)C(=O)c2cc(NC(=O)Nc3ccc(C(F)(F)F)cc3)ccc2O[C@@H]1CN(C)C(=O)Nc1ccc2c(c1)OCO2
-2,O=C(c1ccccc1F)N1CC[C@@H]2[C@@H](CO)Nc3ccc(Br)cc3[C@@H]21
-4,CCCNC(=O)C[C@H]1C[C@@H]2c3cc(NS(=O)(=O)c4cccc(OC)c4)ccc3O[C@@H]2[C@@H](CO)O1
16,C/C=C/c1ccc([C@@H]2[C@@H](CO)N(C(=O)C3CC3)[C@H]2CN(C)C(C)=O)cc1
-8,COc1ccc(S(=O)(=O)Nc2cccc3c2O[C@@H](CN(C)C(=O)Nc2c(C)noc2C)[C@H](C)CN([C@H](C)CO)C3=O)cc1
-1,C[C@@H]1CN([C@H](C)CO)C(=O)c2cc(NC(=O)CCN3CCOCC3)ccc2O[C@H]1CN(C)Cc1ccc(C(=O)O)cc1
4,COCC(=O)N1[C@@H]2c3ccc(-c4ccccc4)c(=O)n3C[C@@H]2[C@@H](CO)[C@@H]1C(=O)Nc1ccccc1
0,COc1ccc(S(=O)(=O)N2CC[C@@H]3[C@H](CO)Nc4ccc(Br)cc4[C@@H]32)cc1
-9,Cn1cnc(S(=O)(=O)N2CCCCN3[C@H](CO)[C@@H](c4ccc(-c5ccc(F)cc5)cc4)[C@@H]3C2)c1
13,Cc1ccccc1S(=O)(=O)N1CCCCN2[C@H](CO)[C@@H](c3ccc(C#CCN(C)C)cc3)[C@@H]2C1
21,O=C(Nc1ccc(F)cc1)N1C[C@H]2[C@@H](c3ccccc31)[C@H](CO)N2C(=O)c1ccccc1F
-9,CCCNC(=O)N1C[C@@H]2[C@H](c3ccccc31)[C@@H](CO)N2Cc1ccc(F)cc1
-10,OC[C@H]1[C@@H](c2ccc(-c3ccccc3F)cc2)[C@@H]2CN(Cc3ccncc3)CCCCN12
-1,O=C(Nc1ccccc1F)N1[C@@H](CO)[C@@H]2c3ccccc3NC[C@@H]21
2,O=S(=O)(c1ccccc1)N1CC[C@@H]2[C@H](CO)Nc3ccc(Br)cc3[C@@H]21
-11,CN(C)C(=O)[C@@H]1[C@@H](CO)[C@@H]2Cn3c(ccc(C4=CCCC4)c3=O)[C@H]1N2CC1CC1
0,C[C@H](CO)N1C[C@H](C)[C@@H](CN(C)S(=O)(=O)c2cn(C)cn2)Oc2c(NC(=O)Nc3cccc4ccccc34)cccc2C1=O
-1,C[C@@H]1CN([C@@H](C)CO)C(=O)c2cccc(NC(=O)Nc3cccc4ccccc34)c2O[C@H]1CN(C)S(=O)(=O)c1cccs1
-3,C[C@@H](NC(=O)[C@H]1[C@H](CO)[C@H]2Cn3c(cccc3=O)[C@@H]1N2C(=O)C1CC1)c1ccccc1
-3,COc1ccccc1-c1ccc2c(c1)[C@H]1[C@H](CCN1C(=O)CN1CCOCC1)[C@H](CO)N2C
4,COc1ccc(CN2C[C@@H](O)COC[C@@H]3O[C@@H](CC(=O)N4CCc5ccccc5C4)CC[C@H]32)cc1
-17,CCC(=O)N1C[C@H]2[C@@H](c3ccccc31)[C@H](CO)N2C(=O)CC
-12,Cc1noc(C)c1NC(=O)Nc1ccc2c(c1)C(=O)N([C@H](C)CO)C[C@@H](C)[C@H](CN(C)Cc1ccc(-c3ccccc3)cc1)O2
38,C[C@H](CO)N1C[C@H](C)[C@H](CN(C)Cc2ccc3c(c2)OCO3)Oc2c(NS(=O)(=O)c3cccs3)cccc2C1=O
6,C[C@@H]1CN([C@@H](C)CO)C(=O)c2cc(NC(=O)Nc3ccccc3)ccc2O[C@@H]1CN(C)Cc1ccc2c(c1)OCO2
14,Cc1cc(C(=O)Nc2cccc3c2O[C@H](CN(C)C(=O)NC(C)C)[C@H](C)CN([C@H](C)CO)C3=O)n(C)n1
-6,C[C@H]1CN([C@@H](C)CO)C(=O)Cc2cc(NC(=O)Nc3ccc4c(c3)OCO4)ccc2O[C@@H]1CN(C)Cc1ccncc1
-12,O=C(C1CCC1)N1CCCCN2[C@H](C1)[C@H](c1ccc(-c3ccncc3)cc1)[C@@H]2CO
9,C[C@H](CO)N1C[C@H](C)[C@@H](CN(C)CC2CCCCC2)OCc2cnnn2CCCC1=O

# Source: PubChem BioAssay (Broad Institute)

# The list is partial. The share of hits here may be higher or lower than overall.
